Screens as filed in PubChem.
Mtb growth: Mycobacterium tuberculosis H37Rv growth inhibition, putative kinase inhibitor library, confirmatory dose response (AID 2842). M. tuberculosis H37Rv growth inhibition; higher % means a stronger effect; some inactives read as strong as hits. inhibition, % at 10 µg/mL; hits with a dose series show IC90 in µg/mL. 24,000 tested, 5.2% active;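 active means confirmed in a dose series; about a fifth of its hits are not listed in these tables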;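 further: bacteria incubated one week before Alamar blue readout; 0% = bacteria only wells and 100% = bacteria with high antibiotic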
* marks the source's active call; other numbers are inactive results.

SMILES	Mtb growth
O=C(CSc1nnc2ccccn12)Nc1nc(-c2ccccc2)ns1	-10%
CC(=O)Nc1ccc(S(=O)(=O)Nc2cc(C)on2)cc1	2%
CC1CCN(C(=O)CSCC(=O)Nc2nc(-c3ccc4c(c3)OCO4)cs2)CC1	70%

Of the compounds above, 2 have two or more sulfur atoms:
SMILES	Mtb growth
O=C(CSc1nnc2ccccn12)Nc1nc(-c2ccccc2)ns1	-10%
CC1CCN(C(=O)CSCC(=O)Nc2nc(-c3ccc4c(c3)OCO4)cs2)CC1	70%

This is a subset; count on the stated rates, not on these rows.
